Mtb MbtI inh: MbtI salicylate synthase inhibitors, primary screen, biochemical, fluorescence intensity; inhibition, %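 (about 17 µg/mL by stock and volumes)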; P9WFX0; 100,000 tested, 0.89% active; purified MbtI enzyme, fluorescence intensity read-out;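 active = above 50% in both replicates, above 80% if mildly self-fluorescent; inactive = the rest, strongly fluorescent compounds included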;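 also: 0% = mean of negative and 100% = mean of positive controls; one replicate is shown; some compounds called inactive have numbers as strong as hits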
Target sequence (P9WFX0 whole entry, looked up): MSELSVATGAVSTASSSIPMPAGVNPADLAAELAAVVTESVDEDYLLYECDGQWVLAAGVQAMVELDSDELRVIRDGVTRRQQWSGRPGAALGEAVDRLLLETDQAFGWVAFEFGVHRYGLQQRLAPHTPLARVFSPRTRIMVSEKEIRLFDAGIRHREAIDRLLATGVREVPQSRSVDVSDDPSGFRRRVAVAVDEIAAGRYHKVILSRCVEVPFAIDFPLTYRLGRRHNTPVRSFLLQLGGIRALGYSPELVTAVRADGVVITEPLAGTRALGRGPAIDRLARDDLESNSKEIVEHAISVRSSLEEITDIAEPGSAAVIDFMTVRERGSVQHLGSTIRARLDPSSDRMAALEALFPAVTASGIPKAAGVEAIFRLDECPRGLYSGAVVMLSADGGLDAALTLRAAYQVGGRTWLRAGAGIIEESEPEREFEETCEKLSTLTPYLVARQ
MenB inh: M. tuberculosis MenB inhibitors, primary screen, biochemical, absorbance; MenB enzyme assay, absorbance read-out; some hits fall short of the stated cut; inhibition, %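 (about 12 µg/mL by stock and volumes)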; 100,000 tested, 0.43% active; AID 540299, 2011;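 active = mean of two replicates above 30%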;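 also: 0% = no compound and 100% = wells with inactive enzyme; the first replicate is given; strong numbers were not always called active; inactives centre near -10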
Target sequence (P9WNP5 whole entry, looked up): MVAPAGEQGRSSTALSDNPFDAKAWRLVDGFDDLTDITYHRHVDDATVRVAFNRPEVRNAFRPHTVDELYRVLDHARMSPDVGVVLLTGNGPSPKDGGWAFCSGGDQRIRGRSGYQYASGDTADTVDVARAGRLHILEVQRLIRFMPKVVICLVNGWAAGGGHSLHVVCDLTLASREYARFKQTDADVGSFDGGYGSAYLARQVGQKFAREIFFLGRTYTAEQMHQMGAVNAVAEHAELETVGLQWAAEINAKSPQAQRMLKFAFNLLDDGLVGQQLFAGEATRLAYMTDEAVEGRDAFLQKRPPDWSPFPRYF
Polio RdRp inh: poliovirus RdRp elongation inhibitors, primary screen, biochemical, fluorescence polarization, total intensity; 150,000 tested, 0.66% active; % elongation, % (compound at 16.7 µg/mL); poliovirus polymerase elongation; active compounds read low; in the data active = % elongation below about 90%; also: some results filed as inactive read as strong as hits
Polio RdRp inh intensity: also measured in Polio RdRp inh; calls as there; % elongation; measured here: total intensity read-out; formula for this scale not given here;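 total fluorescence in place of polarization; lower means less elongation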
The depositor's hits bear a star; i = inactive; / = not tested or not shown; & = joins results of further samples.

SMILES | Mtb MbtI inh | MenB inh | Polio RdRp inh | Polio RdRp inh intensity
COc1cc(OC)nc(C(=O)c2ccc(Cl)cc2)n1 | / | -17.1 | 104.0 | 101.0
C=CCn1sc(N)c(C(=O)OCC)c1=S | 13.3 | -27.0 | 102.0 | 106.0
CCOC(=O)C(N)Cc1ccccc1 (configuration not stated) | / | 6.6 | 100.0 | 92.0
Oc1ccc2oc3c(c2c1C=Nc1ccccc1)CCCC3 | 2.1 | -4.5 | 103.0 | 103.0
N#Cc1ccccc1Sc1ccccc1C(=O)NN1C(=O)NC2(CCCCC2)C1=O | 28.4 | 0.4 | 104.0 | 116.0
c1ccc(C2NCCc3sccc32)cc1 (configuration not stated) | -4.4 | 0.2 | 98.0 | 101.0
C(=N\n1c(-c2cc3ccccc3o2)csc1=NCC1CCCO1)/c1ccc2c(c1)OCCO2 (configuration not stated) | -3.5 | -4.7 | 105.0 | 112.0
Cn1ccnc1C(N)c1ccccc1 (configuration not stated) | -4.4 | -78.9 | 113.0 | 109.0
COc1cc(OC)cc(C(=O)OCC(=O)c2cc3ccccc3o2)c1 | 7.2 | -10.6 | 122.0 | 129.0
O=C1c2ccccc2C(=O)N1Nc1ccc(N2CCOCC2)cc1 | -0.3 | -7.9 | 103.0 | 107.0
O=C(c1ccc2nc3ccccc3c(=O)n2c1)N1CCN(c2ccc(Cl)cc2)CC1 | 2.8 | -1.6 | 100.0 | 105.0
COc1cccc(CNC(=O)C2CCN(S(=O)(=O)c3ccccc3)CC2)c1 | -1.1 | -35.4 | / | /
C(#Cc1ccccc1)CN1CCN(C(c2ccccc2)c2ccccc2)CC1 | / | -30.3 | 94.0 | 92.0
C=CCn1c(=S)sc2c(=O)n(CCOc3cccc(Br)c3)cnc21 | -1.8 | -21.8 | 104.0 | 108.0
CCOc1ccc(CNC(=O)C2CCN(c3nc4ccccc4n4c(C)nnc34)CC2)cc1OC | -1.6 | 0.3 | 98.0 | 107.0
CC(NC(=O)Cc1ccccc1)C(c1ccccc1)N1CCOCC1 (configuration not stated) | -6.2 | -20.3 | 102.0 | 107.0
Cc1c(C(N)=O)sc2nc[nH]c(=O)c12 | / | -0.3 | 121.0 | 143.0
COCCNC(=O)c1cc2nc3c(c(C(F)(F)F)n2n1)CCc1ccccc1-3 | -5.3 | 14.1 | 102.0 | 100.0
CC1(C)CC(=O)C2=C(C1)NC1=C(C(=O)CC(C)(C)C1)C2c1cccc(O)c1 | 25.4 | -88.2 | 104.0 | 102.0
Cc1nc2c(C(=O)NC3CC3)c[nH]n2c(=O)c1Cc1ccccc1F | 13.2 | -7.9 | 106.0 | 98.0

8 entries out of the list, ordered by number of heavy atoms, ascending.
SMILES | Mtb MbtI inh | MenB inh | Polio RdRp inh | Polio RdRp inh intensity
Cc1c(C(N)=O)sc2nc[nH]c(=O)c12 | / | -0.3 | 121.0 | 143.0
C=CCn1c(=S)sc2c(=O)n(CCOc3cccc(Br)c3)cnc21 | -1.8 | -21.8 | 104.0 | 108.0
Cc1nc2c(C(=O)NC3CC3)c[nH]n2c(=O)c1Cc1ccccc1F | 13.2 | -7.9 | 106.0 | 98.0
CC1(C)CC(=O)C2=C(C1)NC1=C(C(=O)CC(C)(C)C1)C2c1cccc(O)c1 | 25.4 | -88.2 | 104.0 | 102.0
C(#Cc1ccccc1)CN1CCN(C(c2ccccc2)c2ccccc2)CC1 | / | -30.3 | 94.0 | 92.0
O=C(c1ccc2nc3ccccc3c(=O)n2c1)N1CCN(c2ccc(Cl)cc2)CC1 | 2.8 | -1.6 | 100.0 | 105.0
C(=N\n1c(-c2cc3ccccc3o2)csc1=NCC1CCCO1)/c1ccc2c(c1)OCCO2 (configuration not stated) | -3.5 | -4.7 | 105.0 | 112.0
CCOc1ccc(CNC(=O)C2CCN(c3nc4ccccc4n4c(C)nnc34)CC2)cc1OC | -1.6 | 0.3 | 98.0 | 107.0

Returning to the listing, repeating the 2 entries before the break.
SMILES | Mtb MbtI inh | MenB inh | Polio RdRp inh | Polio RdRp inh intensity
CC1(C)CC(=O)C2=C(C1)NC1=C(C(=O)CC(C)(C)C1)C2c1cccc(O)c1 | 25.4 | -88.2 | 104.0 | 102.0
Cc1nc2c(C(=O)NC3CC3)c[nH]n2c(=O)c1Cc1ccccc1F | 13.2 | -7.9 | 106.0 | 98.0
C/C(=N/NC(=O)CCc1ccccc1)C1CC1 | -4.8 | -43.2 | 99.0 | 101.0
CCCCON1C(=O)c2cccc3cccc(c23)C1=O | i | -0.7 | 99.0 | 105.0
N#Cc1ccccc1COC(=O)COc1ccccc1C#N | -3.9 | 7.9 | 99.0 | 105.0
CCn1cc2nc(SCC(=O)NCc3ccccc3)n(Cc3ccc(OC)cc3)c(=O)c2n1 | -21.7 | -14.2 | 101.0 | 104.0
CCOc1cccc2cc(C(C)N)oc12 (configuration not stated) | 25.4 | 9.3 | 99.0 | 97.0
Cn1ccnc1SCC(=O)NC(=O)NCc1ccccc1 | 3.2 | -13.3 | 102.0 | 104.0
O=C(NNc1nc2cc3c(cc2s1)OCCO3)c1ccc(F)cc1 | 38.5 | -72.4 | 100.0 | 102.0
O=C(Nc1ccc(F)cc1)Nc1ccc2[nH]c(=O)[nH]c2c1 | -4.5 | -3.5 | 105.0 | 105.0
CCn1nnc2c(Nc3ccc(Cl)c(Cl)c3)ncnc21 | 81.0 | -14.1 | 104.0 | 108.0
Ic1ccc(OCCCCn2ccnc2)cc1 | 2.0 | -10.3 | 100.0 | 102.0
COc1ccc(NCC(=O)N/N=C2\CCCC(C)C2)cc1 (configuration not stated) | -18.5 | -25.1 | 103.0 | 107.0
O=C(CCN1C(=O)C2C3C=CC(C3)C2C1=O)N1CCC2(CC1)OCCO2 (configuration not stated) | -8.6 | 1.3 | 100.0 | 101.0
S=C(NCc1ccco1)NC1CCCCC1 | 2.6 | -8.4 | 101.0 | 103.0
Cc1noc(C)c1C(=O)NCc1ccc(S(N)(=O)=O)cc1 | -2.1 | 7.0 | 100.0 | 102.0
Cc1cc(NC(=O)CCCC(=O)c2ccccc2)n[nH]1 | -0.8 | -10.9 | 101.0 | 106.0
O=C1OC(c2ccccc2)=N/C1=C\c1cn(-c2ccccc2)nc1-c1cc2ccccc2o1 | -4.2 | -14.4 | 44.0 | 236.0
CC1=C(CCN2CCN(CCO)CC2)C(C)(C)CCC1 | -0.9 | -14.8 | 100.0 | 101.0
Cc1oc2nc[nH]c(=O)c2c1C(=O)NCCC(c1ccccc1)c1ccccc1 | -3.8 | -6.1 | 109.0 | 117.0
Cc1c(Cl)cccc1NC(=O)c1cc(-c2ccco2)nc2ccccc12 | 13.8 | / | 105.0 | 104.0
CCSc1nc2sc3c(c2c(=O)n1-c1ccccc1)CCN(C(C)=O)C3 | -12.8 | -1.6 | 100.0 | 103.0
CCOC(=O)c1cc(CC)sc1/N=C/c1c(O)[nH]c(=O)[nH]c1=O | -5.2 | -31.7 | 125.0 | 133.0
C=CCc1cccc(/C=N/NC(=O)c2ccccc2)c1O | -1.6 | -163.6 | 100.0 | 102.0
Cc1ccccc1NC(=S)N=Nc1c(O)n(CN2CCN(c3ccccc3)CC2)c2ccccc12 | -21.4 | -50.9 | 101.0 | 101.0
N#Cc1ccccc1S(=O)(=O)N1CCCC1c1ccc2c(c1)OCCCO2 (configuration not stated) | -6.6 | -24.4 | 101.0 | 98.0
Cc1cc(C)c2c(N)c(C(=O)NC3CCCC3)sc2n1 | 1.9 | / | 102.0 | 106.0
CCC(=O)Nc1cc(C)c(O)c(-c2nc3cc(C)ccc3o2)c1 | -4.9 | -17.6 | 102.0 | 104.0
O=C(C(c1ccccc1)N1Cc2ccccc2C1=O)N1CCN(c2ccccc2F)CC1 (configuration not stated) | -25.2 | 3.1 | 100.0 | 103.0
Cc1ccc2nc(-c3ccc(-n4ccc(=O)cc4)cc3)sc2c1 | -181.3 | / | 105.0 | 108.0
CC(C)C1Oc2ccccc2N(CC(=O)N(CCCN2CCOCC2)Cc2ccc(F)cc2)C1=O (configuration not stated) | -0.5 | 3.8 | 101.0 | 97.0
C=CCn1c(SCC(=O)NCc2ccc(F)cc2)nc2ccccc21 | 8.9 | -3.9 | 114.0 | 124.0
CSc1sc(C(=O)O)c(-c2ccccc2Cl)c1C#N | -11.4 | 17.0 | 103.0 | 97.0
O=C(Nc1cc(N2CCCCC2)ncn1)NC1(C(F)(F)F)Oc2ccccc2O1 | 5.5 | -15.1 | / | /
COc1ccc(NC(=O)c2ccco2)cc1NC(=O)c1cc2ccccc2o1 | 89.8 | 19.9 | 102.0 | 102.0
Cc1cccc2nc(CN3CCN(Cc4ccc5c(c4)OCO5)CC3)cc(=O)n12 | -5.2 | -15.1 | 107.0 | 126.0
CCCN(CCC)S(=O)(=O)Cc1ccccc1Cl | -3.2 | -41.8 | 107.0 | 101.0
CCN(Cc1ccccc1)S(=O)(=O)c1cn(C)c(=O)n(C)c1=O | 1.9 | -7.5 | 101.0 | 102.0
Cc1cc2oc(C(=O)O)cc(=O)c2cc1C | 88.7 | -11.3 | 101.0 | 101.0
Cc1ccc(C=C2C(=O)OC(C)(C)OC2=O)s1 | 21.6 | -18.0 | 100.0 | 101.0
Cc1ccc(OC(C)C(=O)NCCCN2CCOCC2)cc1C (configuration not stated) | -7.5 | -7.2 | 101.0 | 101.0
Cc1ccc(S(=O)(=O)N/N=C/c2cc(C)n(-c3ccc(N(C)C)cc3)c2C)cc1 | 10.1 | 9.7 | 104.0 | 103.0
COC(=O)c1sccc1NC(=O)Cc1noc2ccc(C)cc12 | 1.6 | -6.2 | 101.0 | 100.0
CC(C)(C)C(=O)Nc1c2c(nn1-c1cccc(Cl)c1)CSC2 | 9.4 | 18.5 | 100.0 | 104.0
O=S(=O)(c1ccc(F)cc1)N(CCCN1CCOCC1)Cc1cccs1 | 4.6 | -21.3 | 101.0 | 98.0
CCCCOc1cccc2c1CCN(C)C2=O | -3.1 | -10.6 | 100.0 | 103.0
Cc1ccc(C(C(=O)NC2CCCCC2)N(C(=O)C2COc3ccccc3O2)c2ccc3c(c2)OCO3)o1 (configuration not stated) | -11.8 | -38.5 | 104.0 | 103.0
CC(=O)OCc1cc(=O)n2oc(C)cc2n1 | -11.8 | 13.3 | 99.0 | 103.0
C/C=C/C(=O)Nc1ccc(Cl)c(Cl)c1 | -23.0 | 18.5 | 101.0 | 103.0
Cn1c(SCC#N)nc2c(c1=O)C1(CCCCC1)Cc1ccccc1-2 | -2.1 | -26.8 | 104.0 | 99.0
COC(=O)c1sc(Nc2ccccc2)nc1C | -51.5&-172.2 | -14.6 | 100.0 | 100.0
CC(C)CCNC(=O)c1ccc(CSc2nc3ccncc3n2Cc2ccccc2)cc1 | -14.3 | -19.4 | 104.0 | 105.0
More compounds follow.
SMILES | Mtb MbtI inh | MenB inh | Polio RdRp inh | Polio RdRp inh intensity
O=C(CN1CCCC1c1cccs1)Nc1ccccc1C(=O)NC1CC1 (configuration not stated) | -7.2 | 2.2 | 102.0 | 105.0
COC(=O)C1=CN(Cc2ccc(Cl)cc2)C=C(C(=O)OC)C1c1cccs1 | / | -20.3 | 97.0 | 101.0
Cc1c(C(=O)NCCN2CCN(Cc3ccccc3)CC2)sc2nc3n(c(=O)c12)CCC3 | 13.3 | -9.7 | 103.0 | 100.0
O=C(NC(Nc1ccccc1)(C(F)(F)F)C(F)(F)F)c1ccccc1 | -13.3 | 6.0 | 107.0 | 108.0
NC(=O)CSc1cn(CC(=O)N2CCOCC2)c2ccccc12 | 2.5 | 12.2 | 102.0 | 97.0
O=C(CCS(=O)(=O)Cc1ccccc1)Nc1ccc(F)cc1F | 4.4 | 6.5 | 99.0 | 101.0
COC(=O)c1ccc(COC(=O)c2c(-c3ccccc3)noc2C)o1 | 12.6 | -36.8 | 104.0 | 103.0
C/C(=N\NC(=O)c1cc(-c2ccco2)nc2ccccc12)c1cccnc1 | 109.0 | -25.0 | 103.0 | 106.0
CC(C)CN1C(=O)c2ccc(C(=O)NCc3ccccn3)cc2C1=O | -14.8 | -3.9 | 100.0 | 101.0
O=C1CCC/C(=N\NC(=S)NCCc2ccccc2)C1 | -4.8 | -34.9 | 113.0 | 104.0
COc1ccc(NC(=O)Nc2cn(C)c3ccccc23)c(OC)c1 | 1.6 | -0.4 | 99.0 | 105.0
COCCOc1cc2nc[nH]c(=O)c2cc1OCCOC | -9.1 | -26.2 | 103.0 | 104.0
O=C(O)Cc1csc2nc(-c3ccccc3)cn12 | / | -16.7 | 98.0 | 101.0
CCOc1cccc(/C=N/c2nnc(SC)s2)c1O | -5.0 | -9.6 | 95.0 | 106.0
CC1(C)CC(=O)c2cc(C(=O)N3CC[N+](C)(C)CC3)c(=O)n(-c3ccc(Cl)cc3)c2C1 | 9.9 | 4.9 | 100.0 | 102.0
O=C(NCc1cccnc1)C(C(=O)c1ccc(F)cc1)n1ccccc1=O (configuration not stated) | 14.3 | -58.2 | 103.0 | 101.0
COc1ccccc1NS(=O)(=O)c1ccc2oc(=S)n(CN3CCCC3)c2c1 | 12.6 | -11.7 | 103.0 | 106.0
Cc1ccc(S(=O)(=O)N(C)c2ccc(OCC(=O)N3CCN(c4ncccn4)CC3)cc2)cc1 | -2.0 | -1.4 | 106.0 | 107.0
CN1CCN(c2ccccc2NC(=O)c2cc3c(s2)-c2ccccc2OC3)CC1 | -12.1 | -71.9 | 101.0 | 97.0
Cc1cc(C)c2[nH]c(=O)c(CN(C(=O)Nc3ccccc3F)C3CC3)cc2c1 | 0.6 | 6.6 | 103.0 | 103.0
O=C(Cc1ccccc1)OCc1csc(-c2ccccc2)n1 | -3.3 | / | 101.0 | 99.0
